Screening data: PubChem BioAssay, several laboratories
HNF4A DNA FP: change in binding of human HNF4 alpha to DNA | P41235 | activity change, % at 10 µM | AID 1224865 | HNF4a-FITC DNA binding, fluorescence polarization, 1 h | 360,000 compounds, 0.3% hits; in the data active = activity change above about 30%, passing the limit was not always enough;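 also: controls were the assay level and a saturating level of protein; the project sought stronger binding though the title names inhibitors; some compounds called inactive have numbers as strong as hits; positive values seem to mean higher polarization but the record does not say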
Target sequence (P41235 whole entry, looked up): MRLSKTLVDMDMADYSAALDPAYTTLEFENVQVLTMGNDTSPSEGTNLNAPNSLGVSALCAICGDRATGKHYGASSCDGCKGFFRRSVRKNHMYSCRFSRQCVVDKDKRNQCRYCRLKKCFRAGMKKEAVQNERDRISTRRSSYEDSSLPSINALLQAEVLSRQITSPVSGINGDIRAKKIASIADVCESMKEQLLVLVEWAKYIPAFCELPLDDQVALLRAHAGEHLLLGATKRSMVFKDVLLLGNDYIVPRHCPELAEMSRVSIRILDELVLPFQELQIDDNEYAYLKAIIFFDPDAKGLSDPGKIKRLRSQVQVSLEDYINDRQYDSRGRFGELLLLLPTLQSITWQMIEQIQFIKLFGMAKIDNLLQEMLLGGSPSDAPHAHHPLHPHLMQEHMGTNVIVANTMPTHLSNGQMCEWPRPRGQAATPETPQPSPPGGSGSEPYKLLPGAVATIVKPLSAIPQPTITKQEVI
AF4-AF9 inh: MLL-AF4/AF9 protein interaction inhibition. P42568. inhibition, % at 10 µM. 350,000 compounds, 0.47% hits. AID 651704. AlphaScreen, biotin-AF4 peptide binding to FLAG-AF9;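 active = every replicate reaching a set inhibition limit, whatever the replicate mean, cut at about 25% in these data; inconclusive = mean inhibition reaches that limit but some replicates miss it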;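 also: 0% = plate neutral control median and 100% = total signal loss; the record names both 10 and 1 µM as test concentration; the first replicate is given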
Target sequence (P42568 whole entry, looked up): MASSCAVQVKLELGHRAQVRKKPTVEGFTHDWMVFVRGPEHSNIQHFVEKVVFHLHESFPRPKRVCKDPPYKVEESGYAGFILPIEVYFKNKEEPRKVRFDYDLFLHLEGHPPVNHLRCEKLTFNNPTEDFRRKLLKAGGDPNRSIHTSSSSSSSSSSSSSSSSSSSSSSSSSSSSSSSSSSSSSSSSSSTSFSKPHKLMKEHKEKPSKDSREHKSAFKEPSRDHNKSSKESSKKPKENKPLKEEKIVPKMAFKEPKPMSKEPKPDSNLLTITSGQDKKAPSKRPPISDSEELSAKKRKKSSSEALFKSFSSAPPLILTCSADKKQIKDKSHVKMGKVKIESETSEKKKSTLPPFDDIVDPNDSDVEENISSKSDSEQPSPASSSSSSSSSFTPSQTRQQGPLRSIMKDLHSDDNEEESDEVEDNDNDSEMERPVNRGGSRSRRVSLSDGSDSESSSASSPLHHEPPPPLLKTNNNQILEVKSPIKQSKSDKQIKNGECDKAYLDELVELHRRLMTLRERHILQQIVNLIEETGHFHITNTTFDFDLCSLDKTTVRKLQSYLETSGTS
UCH37 DUB inh: human UCH37 deubiquitinating enzyme inhibition | 330,000 compounds, 0.33% hits | purified proteasome/UCH37, Ub-AMC cleavage fluorescence | Q9Y5K5 | inhibition, % (concentration not given with the values) | AID 588478;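 active = mean of two replicates above 20%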;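 also: 0% = compound-free wells with enzyme and 100% = wells lacking proteasome; stock transfer was 100 nL into about 20 µL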
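Reagent: Ub-AMC substrate; assay system: Proteasome-associated human UCH37 deubiquitinase; controls: no-proteasome and no-compound wells; read-out: % inhibition of Ub-AMC cleavage fluorescence; timing: 30 min preincubation with enzyme, 25 min cleavage at room temperature; signal: AMC fluorescence from Ub-AMC cleavage, excitation 355 nm, emission 460 nm; buffer or medium: Tris-HCl pH 7.4 plus ovalbumin, ATP-MgCl2, DTT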
RanGTP-Imp inh: disruptors of Ran-importin-beta complex formation – biochemical, FRET, CFP-Ran, YFP-importin-beta, homogeneous, primary screen. 300,000 compounds, 1.1% hits. cell-free CFP-Ran/YFP-importin-beta FRET ratio. inhibition, % (test concentration not listed). AID 2216;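 active = most replicates above 15%; inconclusive = exactly half above 15%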;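 also: 0% = DMSO wells and 100% = Ran loaded with GDP instead of GTP; wells of about 40 µL received 100 nL stock; the first replicate is given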
FGF22 binding: shifts melting point of recombinant human FGF22 | 340,000 compounds, 1.5% hits | calls only at 9.99 µM | recombinant FGF22 thermal shift, SYPRO orange fluorescence; percent of sucrose octasulfate shift, DMSO zero;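 active = melting point raised past a set limit in the mean and every replicate; inconclusive = no clear call; three in four hits are not shown here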
Ecoli growth: blocks Escherichia coli growth; OD600, 23 h; stronger effect = lower value; OD600 absorbance (no concentration beside the values); 330,000 compounds, 0.21% hits;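 active = OD600 absorbance below the run mean of sample wells minus 3.6 SD, in any replicate, cut at about 0.56 in these data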;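 also: stock transfer was 300 nL into about 60 µL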
Vif TR-FRET: HIV-1 Vif–A3G interaction blockers – biochemical, TR-FRET, GST-Vif 1-94, biotin-A3G peptide, dose response retest, primary screen (AID 1117319) | TR-FRET GST-Vif / biotin-A3G peptide binding; higher % means a stronger effect; test concentration not given here; strong numbers were not always called active | inhibition, %; hits with a dose series show IC50 in µM | 260,000 compounds, 0.57% hits;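 active = above the screen mean plus three standard deviations and confirmed in dose response; inconclusive = results disagree or hit not tested in dose response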;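 also: Vif residues 1-94 fused to GST binding biotinylated APOBEC3G peptide 110-148; 0% = full assay without inhibitor and 100% = GST in place of GST-Vif; retest series ran down from 100 µM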
The depositor's hits bear a star; i = inactive; ? = inconclusive; / = not tested or not shown; + = active, no number; & = joins results of further samples.

No.	HNF4A DNA FP	AF4-AF9 inh	UCH37 DUB inh	RanGTP-Imp inh	FGF22 binding	Ecoli growth	Vif TR-FRET	Structure
1	-4.0	7.3	4.9	0.6	i	0.719	11.0%	COc1ccc(C(=O)N2CCCC(Nc3ccc(C(C)C)cc3)C2)c(OC)n1 (stereo not drawn)
2	-2.0	/	5.0	-1.2	/	0.685	-4.0%	N[C@@H](Cc1ccccc1)c1nnc2sc(SCc3ccccc3)nn12
3	1.4	7.5	/	3.1	i	/	1.9%	C/C(CC(=O)Nc1ccc(N(C)C)cc1)=N\NC(=O)c1ccc(Cl)cc1
4	-0.7	1.6	0.9	1.1	i	0.72	/	Cc1ccc(F)cc1NC(=O)CSc1nc(Nc2ccccc2)nc(N2CCOCC2)n1
5	-1.7	/	1.0	0.8	/	0.734	5.8%	O=C(c1ccc(Cl)cc1)c1c[nH]c(C(=O)C(Cl)(Cl)Cl)c1
6	2.9	-1.2	/	/	i	/	-2.2%	CCN(CC(=O)Nc1ccc2c(c1)OCCO2)C(=O)COc1ccc(C(C)=O)cc1
7	2.1	6.4	/	/	i	/	/	CC(C)(C)n1nnnc1C(CCc1ccccc1)N1CCN(C/C=C/c2ccccc2)CC1 (stereo not drawn)
8	-0.7	-4.2	0.2	-3.9	i	0.667	/	CCC(=O)c1ccc(NC(C)=O)cc1O
9	1.1	-1.6	0.9	?	i	0.637	/	O=C(Nc1cccc(-c2nnc(-c3ccccc3)o2)c1)C1CC1
10	2.3	/	-1.4	/	/	0.693	6.1%&-5.1%	COc1ccccc1N1CCN(C(=O)CN(c2ccccc2OC)S(=O)(=O)c2ccccc2)CC1
11	-1.7	-7.9	-3.2	/	i	0.708	-22.8%	CCN(C(=O)CSc1nc(C)nc2sc(C)c(C)c12)c1ccc(F)cc1
12	-0.3	0.2	6.2	?	i	0.721	-1.5%	COc1cc2c(cc1OC)CN(S(C)(=O)=O)CC2
13	-1.9	/	-2.9	0.7	i	/	-8.3%	C#CCNC(=O)/C=C/c1ccc(OC)cc1
14	0.9	/	6.3	-0.5	i	0.696	4.5%	COC(=O)c1sccc1NC(=S)OC
15	2.1	8.0	/	/	i	/	/	NC(c1csc(NC(=O)Nc2ccccc2)n1)C1CCCCC1 (stereo not drawn)

Some of these compounds in order of molar mass, rising.
No.	HNF4A DNA FP	AF4-AF9 inh	UCH37 DUB inh	RanGTP-Imp inh	FGF22 binding	Ecoli growth	Vif TR-FRET	Structure
8	-0.7	-4.2	0.2	-3.9	i	0.667	/	CCC(=O)c1ccc(NC(C)=O)cc1O
13	-1.9	/	-2.9	0.7	i	/	-8.3%	C#CCNC(=O)/C=C/c1ccc(OC)cc1
5	-1.7	/	1.0	0.8	/	0.734	5.8%	O=C(c1ccc(Cl)cc1)c1c[nH]c(C(=O)C(Cl)(Cl)Cl)c1

Additional results.
No.	HNF4A DNA FP	AF4-AF9 inh	UCH37 DUB inh	RanGTP-Imp inh	FGF22 binding	Ecoli growth	Vif TR-FRET	Structure
16	3.0	6.7	2.0	-5.4	i	0.625	32.1%	O=C(C1CC(c2ccccc2O)=NO1)N1CCCC1 (stereo not drawn)
17	1.1	/	-0.4	-3.4	/	0.657	2.5%&1.1%	Cc1cc(NC(=O)Cn2cnc3sc(C)c(-c4ccccc4)c3c2=O)no1
18	-6.0	-1.3	0.5	?	i	0.671	0.5%	Cc1ccsc1C(=O)OCC(=O)Nc1nnc(-c2ccccc2)o1
19	1.1	2.6	1.7	/	i	0.681	14.5%	CCOC(=O)C1=C(COC(=O)CSc2ccc(C)cc2)NC(=O)NC1C (stereo not drawn)
20	-1.7	-2.4	3.0	-0.7	i	0.693	6.9%	CC1CCCCN1C(=O)CCS(=O)(=O)c1cccc2nonc12 (stereo not drawn)
21	2.9	-2.5	/	/	i	/	/	CCc1nc2ccc(C(=O)NCCN3CCOCC3)cn2c1N(CCC(C)C)CCN(C)C
22	-1.5	-3.1	2.7	-1.5	i	0.651	/	COc1ccc(Cl)c2sc(N(Cc3cccnc3)C(C)=O)nc12
23	1.8	-2.1	4.2	/	+	0.709	2.5%	COc1cc(OC)cc(C(=O)Nc2ccc(S(=O)(=O)Nc3nc(C)cc(C)n3)cc2)c1
24	-2.8	1.6	/	/	i	/	-0.9%	CCCc1cc(CCC)n2nc(N)nc2n1
25	0.7	-1.5	4.2	-2.3	i	0.693	12.2%	CCCCN1C(=O)C(O)(CC(=O)c2ccccn2)c2ccccc21 (stereo not drawn)
26	2.4	1.4	2.1	2.8	i	0.702	/	CN1CCN(C(=O)/C(=C/c2cn(S(=O)(=O)N(C)C)c3ccccc23)NC(=O)c2ccccc2F)CC1
27	1.1	/	-18.7	-1.8	/	0.74	/	COc1ccc(-c2cc(-c3ccc(OC)cc3)c(C#N)c(SC)n2)cc1
28	9.5	-2.8	0.1	4.1	i	0.669	-4.2%	Cn1c(SCC(=O)N2CCCC2=O)nc2ccccc21
29	1.2	/	0.6	-2.9	/	0.721	-1.3%	Cc1cccc(-c2noc(-c3ccc(F)cc3)n2)c1
30	0.5	/	3.6	-3.3	/	0.717	10.9%	CC12CCC(=O)N1C(C(=O)OCC(=O)Nc1sccc1C#N)CS2 (stereo not drawn)
31	-1.9	-0.6	1.5	1.7	i	0.67	-10.6%	CCCc1cc(=O)[nH]c(SCC(=O)Nc2ncc(S(=O)(=O)c3ccc([N+](=O)[O-])cc3)s2)n1
32	-0.8	3.0	5.8	?	i	0.68	-0.8%	CCCc1nc2oc3c(OC)ncnc3c2c2c1COC(C)(C)C2
33	-4.9	5.0	-1.7	4.7	i	0.721	/	CCOC(=O)N1CCC(NC(=O)CC2C(=O)NCCN2Cc2ccc(C)cc2)CC1 (stereo not drawn)
34	-1.3	/	-10.1	-1.8	/	0.7	-1.0%	CCOC(=O)CC(=O)CSc1ccc2nnc(-c3ccc(C)cc3)n2n1
35	-0.8	-0.5	-4.8	-0.4	i	0.695	8.0%	CN1C(c2ccc(F)cc2)=CS/C1=C(/C#N)c1nnc(N2CCOCC2)n1-c1ccccc1
36	4.3	/	0.8	5.1	/	0.698	1.6%	COc1ccc(C(=O)Oc2cccnc2)cc1
37	3.5	2.9	/	/	i	/	/	O=C1CCCC2=C1C1(CCCC1)N=C(Nc1nc3cc(-c4ccccc4)ccc3o1)N2
38	-1.6	-0.3	-2.5	/	i	0.718	-2.8%	COc1ccc(C(=O)NCC(=O)OCC(=O)N2CC(C)OC(C)C2)cc1OC (stereo not drawn)
39	2.2	-7.9	1.5	-4.3	i	0.683	0.3%	CC(=O)N1Cc2ccccc2CC1C(=O)NCc1ccccc1F (stereo not drawn)
40	2.1	/	5.2	-1.0	/	0.66	-1.0%	CN(C(=O)Cc1noc2ccccc12)c1ccccc1
41	2.0	-1.6	4.3	-2.9	i	0.649	2.2%	Cc1cc(-c2nnc(SCC(=O)Nc3ccccc3Cl)n2C)no1
42	-4.5	0.3	-12.7	0.0	i	0.626	?	CC1=C(C(=O)OC(C)C)C(c2ccc(C)o2)C(C(=O)OC(C)C)=C(C)N1
43	-3.8	/	/	-2.3	/	/	0.9%	C/C(=N\NC(=O)c1ccc(F)cc1)c1cccc(NC(=O)c2ccco2)c1
44	-0.2	2.5	0.4	2.0	i	0.673	/	O=[n+]1cc(-c2ccccc2)n([O-])c2c1CCCCC2
45	0.7	/	2.0	-1.5	/	0.759	0.2%	CCOC(=O)C1=C(CN2CCc3ccccc32)NC(=O)NC1c1cc(C)ccc1C (stereo not drawn)
46	1.4	/	5.7	5.9	/	0.675	25.1%	OCCN(Cc1ccccc1)CC1CCCCC1
47	1.6	5.6	/	/	/	/	0.9%	N#CC(c1ccccc1)C(CC(=NO)c1ccccc1)c1ccccc1 (stereo not drawn)
48	2.0	/	4.8	2.2	/	0.748	/	COc1ccc(NC(=S)NCCN2CCOCC2)c(OC)c1
49	5.3	-0.5	4.7	?	i	0.68	/	Cc1nn(CC(=O)NCCCN2CCCCC2C)c(=O)c2cccn12 (stereo not drawn)
50	-2.4	/	-1.0	-0.5	/	0.776	88.2µM*	O=C(O)c1cccc(CSc2nnc(COc3ccccc3)o2)c1
51	-2.0	-2.2	1.6	0.0	i	0.67	/	COc1ccc(Cl)cc1NC(=O)NNC(=O)c1ccccn1
52	-1.0	/	0.8	-1.0	/	0.698	-1.7%	O=C(NC1CCCC1)C1C2C=CC(C2)C1C(=O)N1CCOCC1 (stereo not drawn)
53	-0.8	/	-1.7	?	/	0.662	5.3%	O=C(NCc1ccncc1)Nc1ccc(F)cc1
54	0.8	/	-66.0	-1.0	/	0.728	/	Cc1ccc2c(Cl)c(C(=O)Nc3ccc4c(c3)OCO4)sc2c1
55	1.2	/	-1.1	4.0	/	0.688	2.8%	CSC1=C(C#N)C(CC(C)C)C2=C(CCCC2=O)N1 (stereo not drawn)
56	-8.0	/	-235.4	5.1	/	0.719	-4.6%	CCCCCCNC(=O)c1cc(-c2ccco2)nc2ccccc12
57	-3.0	/	5.2	-1.9	/	0.65	-2.8%	Cc1ccc(NC(=S)NC2CC3CCC(C2)N3Cc2ccco2)c(C)c1 (stereo not drawn)
58	0.8	-3.9	1.5	-2.8	i	0.718	-4.7%	COc1c(C)cc(S(=O)(=O)NCCN2CCOCC2)c(C)c1C
59	2.3	-1.0	1.5	/	i	0.688	4.3%	COc1ccc(O)c(CN2CC3CCC(CC3)C2)c1
60	-3.1	/	-3.3	0.9	i	0.655	/	O=c1[nH]c2ccccc2cc1-c1nnn(-c2ccc(Cl)c(Cl)c2)n1
61	-3.9	-2.3	6.4	-10.6	i	0.721	/	COc1ccc(/C=C(\NC(=O)c2ccc(C)cc2)C(=O)Nc2c(C)n(C)n(-c3ccccc3)c2=O)cc1
62	-1.6	-4.7	3.4	/	i	0.719	13.5%	CC(=O)Nc1ccc(S(=O)(=O)NCC(=O)OCC(=O)Nc2sccc2C(N)=O)cc1
63	/	4.5	5.2	-1.3	i	0.68	/	O=C(NCCN1CCOCC1)c1cc(Sc2ccccc2Cl)nc2ccccc12
64	-1.1	-0.8	0.4	0.4	i	0.649	3.9%	Cc1ccc(N/C=C(\C2OC(=O)c3ccccc32)[N+](=O)[O-])c(C)c1 (stereo not drawn)
65	2.1	2.3	/	-2.6	i	/	/	CN(C)c1ccc(/C=N/Nc2nncc3ccccc23)cc1
66	9.5	/	-0.1	2.9	/	0.65	?	COc1cccc(-c2nc3n(n2)C(c2ccc4c(c2)OCO4)C(C(N)=O)=C(C)N3)c1 (stereo not drawn)
67	3.0	0.5	-6.8	?	i	0.73	/	CCOc1ccc2nc(SCC(=O)N3c4ccccc4Sc4ccccc43)c(C#N)cc2c1
68	1.4	/	2.9	2.0	/	0.706	-7.8%	C/C(=C\c1cc(C(=O)O)c(C)o1)CO
69	0.1	-2.5	0.9	/	i	0.675	-4.8%	COc1c(NC(C)=O)c2c(c([N+](=O)[O-])c1OC)C(=O)OC2

Only part of the results is shown. The share of hits here may be higher or lower than overall.
